Bioassay records deposited in PubChem by National Center for Advancing Translational Sciences (NCATS).
ClpP mod: qHTS Assay for Activators of ClpP | 1.9% of 340,000 active | purified B. subtilis ClpP, FRET peptide cleavage, 20 min | Potency, µM (doses to about 57.5 µM), inactives show at the highest dose activity change, negative = active | ATP-dependent Clp protease proteolytic subunit (Bacillus subtilis (strain 168)), P80244; active = well fitted falling curve with a large enough effect; inconclusive = small, poorly fitted or top-dose-only effect; inactive = no such curve, though single readings can be large or run the other way; further: potency means the concentration at half of the fitted maximal effect; the source files actives as falling curves though it sought activators and does not explain the sign; nearly all actives have a fitted effect of over 65% in size; many hits overshoot -100%
Target sequence (P80244 whole entry, looked up): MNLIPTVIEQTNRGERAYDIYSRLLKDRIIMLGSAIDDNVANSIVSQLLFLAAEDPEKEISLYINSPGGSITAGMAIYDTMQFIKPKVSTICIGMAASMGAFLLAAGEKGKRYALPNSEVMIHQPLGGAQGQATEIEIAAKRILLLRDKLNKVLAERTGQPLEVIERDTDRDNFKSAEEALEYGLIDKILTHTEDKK
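Purified B. subtilis ClpP, 10 microg/mL final in Tris/HCl pH8 with KCl, BSA, glycerol and Tween-20, cleaved an Abz/nitrotyrosine-quenched decapeptide. Fluorescence (ex 320, em 430) was read at 0 and 20 min at room temperature. Delta was normalized to 5.8 microM ADEP and DMSO/no-enzyme controls.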
TRPML1 agonist: activates the human TRPML1 channel. Q9GZU1. 0.12% of 410,000 active. AID 624414. activation, % (no concentration beside the values). TRPML1-expressing cells, Ca2+ dye fluorescence, FDSS; host cell line not named in the record; reference of the full effect not given here; in the data active = activation above about 50%; inconclusive = about 30% to 50%; inactive = below about 30%; further: 0% is about no effect; the text of the record puts the active cut at 80%
Target sequence (Q9GZU1 whole entry, looked up): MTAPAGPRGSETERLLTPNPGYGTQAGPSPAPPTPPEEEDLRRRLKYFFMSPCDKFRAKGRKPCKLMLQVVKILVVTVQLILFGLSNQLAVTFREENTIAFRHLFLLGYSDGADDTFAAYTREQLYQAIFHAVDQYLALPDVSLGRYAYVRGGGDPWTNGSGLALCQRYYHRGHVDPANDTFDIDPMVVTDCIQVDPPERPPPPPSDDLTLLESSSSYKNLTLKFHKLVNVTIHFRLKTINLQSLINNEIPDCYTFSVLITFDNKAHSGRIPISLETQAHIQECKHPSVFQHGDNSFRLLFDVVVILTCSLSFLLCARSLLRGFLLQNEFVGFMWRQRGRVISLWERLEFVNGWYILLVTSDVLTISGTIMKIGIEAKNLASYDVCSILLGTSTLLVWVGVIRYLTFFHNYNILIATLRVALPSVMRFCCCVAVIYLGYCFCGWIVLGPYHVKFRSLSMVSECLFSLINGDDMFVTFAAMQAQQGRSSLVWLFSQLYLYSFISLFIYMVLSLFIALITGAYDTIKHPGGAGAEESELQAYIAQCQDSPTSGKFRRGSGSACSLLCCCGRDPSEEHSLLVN
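In this qHTS format, compounds were pin-transferred onto Ca8-dye-loaded TRPML1-DL cells induced with Tet overnight, and intracellular Ca2+ fluorescence was recorded kinetically for 110 s after a 10 s baseline. A subsequent 4uM final 54-4 (EC80) addition followed by a second 110 s read served as the antagonist phase.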
* = called active by the depositor; u = inconclusive. This is a subset; count on the stated rates, not on these rows.

item	SMILES	TRPML1 agonist	ClpP mod
1	CCN1C(Br)=CCc2ccccc21	-0.5	-0.1%
2	CC(O)(c1ccccc1)[N+]1(CC(=O)c2ccccc2)C=CC=C1 (stereo not given)	0.2	-3.2%
3	CC1(C(=O)NS(C)(=O)=O)CCN1C(=O)Cc1ccc(Cl)cc1Cl (stereo not given)	-0.1	-3.1%
4	CCOc1ccccc1C1NC(c2ccc3c(c2)OCO3)=CC(c2ccccc2O)N1 (stereo not given)	-0.8	-11%
5	O=C(NCCN1CCC(n2c(=O)[nH]c3ccccc32)CC1)c1ccc(F)c(F)c1	-1.0	1.7%
6	CCC1Cc2[nH][nH]c(=O)c2C(CC)O1 (stereo not given)	-0.4	-3.6%
7	CCC(C)N(c1ccc(/C=C/c2ccnc3ccccc23)cc1)C(C)CC (stereo not given)	18	-0.8%
8	CCN(CC)C(=O)c1ccc2nc([C@H]3C[C@H](O)[C@@H](CO)O3)[nH]c2c1	0.8	-5.4%
9	C[n+]1ccc(/C=C/c2ccc(F)cc2)c2ccccc21	-0.6	-2.6%
10	CCN(CC)c1ccc(/C=C/c2nccc3ccccc23)cc1	64*	-1.5%
11	O=C1NC[C@H](CCCCN2C[C@H](Cc3ccc(O)cc3)N(CCC3CCCCC3)C(=O)C2=O)N(CCC2CCCCC2)C1=O	-0.3	-1.7%
12	O=C1NC[C@H](CCCCN2C[C@@H](Cc3ccccc3)N(Cc3ccccc3)C(=O)C2=O)N(CCC2CCCCC2)C1=O	-0.6	-0.8%
13	O=C(C[n+]1ccc2ccccc2c1)c1ccc(F)cc1	-0.4	68%
14	COc1ccc(C(c2nnnn2-c2ccc3c(c2)OCCO3)N2CCN(C/C=C/c3ccccc3)CC2)cc1 (stereo not given)	0.3	-5.6%
15	Cc1[nH]c2ccccc2c1C(=O)COC(=O)c1ccccc1SCC(=O)N1CCCC1	-0.4	0.0%
16	CC1=C(C(=O)N(C(C)C)C(C)C)CC(CC(=O)NC2CC2)C(=O)N1CCCN1CCCC1=O (stereo not given)	-0.4	-1.1%
17	CCOc1ccc(Cl)cc1-c1cc(C(=O)NCc2ccccc2)[nH]n1	-0.7	-6.8%
18	CCc1ccc2[nH]c(=O)c(CN(Cc3cccnc3)Cc3nnnn3Cc3ccccc3)cc2c1	1.6	u
19	CN(C)[C@H]1CCN([C@H]2CS(=O)(=O)N[C@@H]2COCc2ccccc2)C1	-0.1	-4.1%
20	CC(C(=O)c1ccccc1)[n+]1cccc(Cl)c1 (stereo not given)	-0.6	0.7%
21	CSc1ccc(CN2CCC2(C)C(=O)NCc2cccs2)cc1 (stereo not given)	-1.0	1.2%
22	OC[C@@H]1CN(Cc2ccc(-c3ccccc3)cc2)C[C@H](n2cnc3c(NC4CC4)ncnc32)O1	0.0	-0.5%
23	COC(=O)c1ccc2nc(-c3ccc(F)cc3)c(Cc3ccccc3OC)n2c1	-0.1	4.6%
24	CC(=O)N1CCN(C(c2ccccc2)c2nnnn2C(C)(C)C)CC1 (stereo not given)	-0.6	1.3%
25	COc1ccc(-c2oc3c(c2C#CC(C)(C)O)C(OCCO)CC3)cc1 (stereo not given)	-0.8	-11%
26	CCCc1nc2ccc(C(=O)OC)cn2c1Cc1cccc(F)c1	0.1	5.4%
27	CCn1nc(-c2ccccc2C)nc2c(=O)n(C)c(=O)nc1-2	-0.4	-1.6%
28	CC(C)C[C@H]1CNC(=O)C(=O)N1CC1CCN(CC2CCC(C)CC2)CC1 (stereo not given in full)	0.4	-3.9%
29	CCN(CC)c1ncnc2c1ncn2[C@H]1CN(Cc2ccc(F)cc2)C[C@@H](CO)O1	-0.5	1.5%
30	CC1(C(=O)Nc2ccccc2)Cc2c(-c3cccc(C(N)=O)c3)ccnc2O1 (stereo not given)	-1.0	-1.5%

(more compounds)
item	SMILES	TRPML1 agonist	ClpP mod
31	CC(C)C1Cc2[nH][nH]c(=O)c2C(c2ccc(Cl)cc2)O1 (stereo not given)	-0.8	-0.9%
32	CCCNC(=O)c1cc(C2CCCN(C(=O)c3cc(F)ccc3C)C2)on1 (stereo not given)	-0.7	-0.8%
33	Nc1ccc(C=O)cc1	-0.2	-0.2%
34	Cc1ccccc1-c1cc2nc(NCCc3ccncc3)n(C)c(=O)c2s1	-0.4	-13%
35	O=C(Nc1cccc(Cl)c1)c1ccc2sc([C@@H]3O[C@H](CO)[C@H](O)[C@H](O)[C@H]3O)nc2c1	-0.3	-0.5%
36	CCCCCCCCCOC(=O)CNc1nc(C#N)nc(NCC(=O)OCCCCCCCCC)n1	-0.2	-5.1%
37	CN(C)c1ccc(/C=C/c2cnnc3ccccc23)cc1	16	-1.2%
38	COc1cccc(CN2CCC2(C)C(=O)NCCc2ccccn2)c1OC (stereo not given)	-0.5	-1.1%
39	Cc1nn(-c2ccccn2)c2c1-c1nc(N)sc1CC2	-0.6	u
40	CC[N+]1(CC(=O)c2cccs2)CCCCC1	0.0	1.1%
41	COCCNC(=O)C1(C)Cc2c(-c3cccc(NC(C)=O)c3)ccnc2O1 (stereo not given)	-0.5	u
42	O=C1NC[C@@H](CCCCN2C[C@H](Cc3ccccc3)N(CCC3CCCCC3)C(=O)C2=O)N(Cc2ccccc2)C1=O	-0.5	1.9%
43	CC(C)NC(=O)C1(C)CCN1C(=O)c1cccc(F)c1 (stereo not given)	-0.3	-0.2%
44	CN(C)c1cccc(NC(=O)C2Cc3c(-c4cccnc4)ccnc3O2)c1 (stereo not given)	-0.7	-10%
45	CC(=O)N1C[C@H]2CON(C)[C@H]2C[C@H]1c1ccccc1	0.1	-4.3%
46	N#Cc1ccc(-c2nc3c(Cl)cc(C(F)(F)F)cn3c2Cc2ccccc2C(F)(F)F)cc1	-0.1	u
47	CCCCNC(=O)Cn1c(SCc2cccc(F)c2)nc2ccncc21	-0.6	-16%
48	COc1cccc(C(=O)N2CCC[C@@H]2C(=O)N2CCC[C@H]2C(=O)NCc2ccncc2)c1	-0.3	1.8%
49	Nc1[nH]c(C(=O)c2ccccc2)c(-c2ccc([N+](=O)[O-])cc2)c1C(=O)NCCc1c[nH]c2ccccc12	-0.2	-6.3%
50	CCOc1cccc(-c2cc(NCCc3ccccn3)n3nccc3n2)c1	-1.2	3.4%
51	CCN(CC)c1c(C)nc2ccc(C(=O)Nc3cc(-c4ccccc4)ccc3OC)cn12	-0.5	-10%
52	CCc1ccc(C(O)c2ncc(-c3ccccc3OC)[nH]2)cc1 (stereo not given)	-0.7	-8.1%
53	COc1ccc(NC(=O)C2Cc3c(-c4ccc5c(c4)OCO5)ccnc3O2)cc1OC (stereo not given)	-1.2	5.3%
54	Cc1cnc(C)c(Nc2nc(C(N)Cc3ccc(C(F)(F)F)cc3)cs2)n1 (stereo not given)	1.6	0.6%
55	COc1ccc(C(C)(O)c2nc(-c3ccc(F)c(Cl)c3)cs2)cc1 (stereo not given)	1.0	-12%
56	COc1ccc(CN2C(=O)CCC2(C)c2nnnn2-c2c(C)cccc2C)cc1OC (stereo not given)	-0.6	-10%
57	O/N=C(/C[n+]1cccc(Br)c1)c1ccc2ccccc2c1	-1.1	-1.8%
58	O=C(Nc1ccc([N+](=O)[O-])cc1Cl)c1cc(Br)ccc1O	-0.2	-0.6%
59	CCc1ccc2[nH]c(=O)c(CN(Cc3cccs3)Cc3nnnn3Cc3ccccc3)cc2c1	0.3	u
60	CCCNC(=O)c1cc(C2CCCCN2C(=O)c2ccccc2)on1 (stereo not given)	-0.5	-1.4%

An excerpt of these results, with two lines to a compound.
Each structure is followed by: TRPML1 agonist, ClpP mod
45	CC(=O)N1C[C@H]2CON(C)[C@H]2C[C@H]1c1ccccc1
  0.1, -4.3%
59	CCc1ccc2[nH]c(=O)c(CN(Cc3cccs3)Cc3nnnn3Cc3ccccc3)cc2c1
  0.3, u
58	O=C(Nc1ccc([N+](=O)[O-])cc1Cl)c1cc(Br)ccc1O
  -0.2, -0.6%
49	Nc1[nH]c(C(=O)c2ccccc2)c(-c2ccc([N+](=O)[O-])cc2)c1C(=O)NCCc1c[nH]c2ccccc12
  -0.2, -6.3%
57	O/N=C(/C[n+]1cccc(Br)c1)c1ccc2ccccc2c1
  -1.1, -1.8%
50	CCOc1cccc(-c2cc(NCCc3ccccn3)n3nccc3n2)c1
  -1.2, 3.4%
38	COc1cccc(CN2CCC2(C)C(=O)NCCc2ccccn2)c1OC (stereo not given)
  -0.5, -1.1%

3 compounds from above, arranged by length of the SMILES, smallest number first:
item	SMILES	TRPML1 agonist	ClpP mod
6	CCC1Cc2[nH][nH]c(=O)c2C(CC)O1 (stereo not given)	-0.4	-3.6%
28	CC(C)C[C@H]1CNC(=O)C(=O)N1CC1CCN(CC2CCC(C)CC2)CC1 (stereo not given in full)	0.4	-3.9%
51	CCN(CC)c1c(C)nc2ccc(C(=O)Nc3cc(-c4ccccc4)ccc3OC)cn12	-0.5	-10%

Continuation:
item	SMILES	TRPML1 agonist	ClpP mod
61	CCOc1ccc(-c2cc(C(=O)Nc3cc(OC)c(OC)c(OC)c3)[nH]n2)c(C)c1	-0.9	1.1%
62	OC[C@@H]1CN(Cc2ccncc2)C[C@H](n2cnc3c(NCc4ccco4)ncnc32)O1	-0.1	-1.3%
63	NCCCN(Cc1ccccc1)c1ccc(Br)cn1	0.0	0.2%
64	NC(COCc1ccccc1)c1csc(Nc2ccc(C(=O)c3ccccc3)cc2)n1 (stereo not given)	0.1	-9.1%
65	CSc1ccc(CN2CCC(C)(Oc3cccc(C#N)c3)C2)cc1 (stereo not given)	-0.6	-2.4%
66	CCOC(=O)c1ccc(Nc2ccc(C(C)=O)cc2)cc1	-0.5	-20%
67	CONC(=O)c1ccc(-c2cccc3nccn23)cc1	-0.7	-18%
68	COc1ccc(S(=O)(=O)N2CCC[C@H]2C(=O)N2CCC[C@H]2C(=O)N[C@H](C)c2ccccc2)cc1C	-0.7	-0.5%
69	C=CCNc1nc(NC2CCN(C)CC2)c2cc(OC)c(OC)cc2n1	-0.1	4.3%
70	CCCCn1nnnc1C(c1ccccc1)N1CCc2ccccc2C1 (stereo not given)	0.5	-2.6%
71	COc1ccc(C(NC(=O)C2CCN(Cc3cc(OC)cc(OC)c3)CC2)c2ccccn2)cc1 (stereo not given)	-0.4	1.4%
72	CN(C)CCNc1nc(Oc2cccc(F)c2)c2sccc2n1	0.3	-9.0%
73	C[N+]1(CC(=O)c2cccc([N+](=O)[O-])c2)CCOCC1	-0.1	0.2%
74	O=C(CNC1=NCCS1)c1c[nH]c2ccccc12	-0.7	-19%
75	CCCNC(=O)c1cc2c(c(-c3cccc(-c4ccccc4F)c3)n1)[C@H](CCO)N(C(=O)CC1CC1)C2	-0.4	-6.9%
76	Cc1ccc(C2NC(c3ccc4c(c3)OCO4)=CC(c3cc(Br)ccc3O)N2)cc1 (stereo not given)	-0.2	1.1%
77	Cc1cccc(-c2cnc(C(O)c3ccc(F)c(C)c3)[nH]2)c1 (stereo not given)	-0.1	-3.1%
78	CC1(C(=O)NS(=O)(=O)c2cccc(OC(F)F)c2)CCN1C(=O)C1CC1 (stereo not given)	-0.3	1.5%
79	COCCNC(=O)C1(C)CCN(Cc2ccccc2C#N)C1 (stereo not given)	-0.3	0.6%
80	O=C(Nc1cccc(C(F)(F)F)c1)c1csc([C@@H]2O[C@H](CO)[C@H](O)[C@H](O)[C@H]2O)n1	-0.6	1.7%
81	COc1ccc(-c2oc3c(c2C(=O)OCCO)C(OCCCO)CCC3)cc1 (stereo not given)	0.2	5.3%
82	CCCCCc1c(-c2cccc(F)c2)ncn1CCc1ccccc1OC	2.4	-2.0%
83	COc1ccc([C@H]2CC(=O)C[C@@H](CCn3nnc4ccccc43)O2)cc1	-1.1	-1.8%
84	CCCCNC(=O)C1c2ccccc2OCC(=O)N1CCCN1CCOCC1 (stereo not given)	-0.2	0.9%
85	O=C1CC2c3ccccc3CCN2C(=O)CN1Cc1ccccc1 (stereo not given)	-0.7	0.3%
86	CCNC(=O)C1CCCN(C(=O)c2ccco2)CC1 (stereo not given)	0.6	0.9%
87	CN(C)c1ccc(/C=C2\C=Nc3ccccc32)cc1	-0.8	-12%
88	COc1cc(CNC(=O)c2cc(-c3cc(F)ccc3OCC3CCCO3)n[nH]2)cc(OC)c1 (stereo not given)	-0.2	-3.8%
89	CCOc1[nH]c(/N=C/c2ccccc2)c(C#N)c1C#N	3.7	13%
90	CC(=O)c1c(C)[nH]c2ccc(OCC(O)CNCCc3ccccc3)cc12 (stereo not given)	0.7	-3.3%

Later entries:
item	SMILES	TRPML1 agonist	ClpP mod
91	COc1ccc(CN(Cc2ccccc2)C(=O)CN2CCN(C)CC2)cc1COc1ccc(NC(C)=O)cc1	-0.1	-1.3%
92	Cc1cc(C=Nc2ccc(/C=C/c3ccnc4ccccc34)cc2)ccc1N(C)C	8.8	-0.2%
93	COc1ccccc1-c1noc2c1C(=O)N(Cc1cn(C3CCCC3)nn1)CC2	-0.9	-0.1%
94	CN1OC[C@@H]2CN(C(=O)c3cccc4ccccc34)[C@H](c3ccccc3Br)C[C@@H]21	0.1	-2.6%
95	COc1ccc(NC(=O)CSc2nnc3c(n2)[nH]c2ccc(S(=O)(=O)N(C)C)cc23)c(OC)c1	-0.3	0.0%
